Tgondii IFNg: inhibitors of Toxoplasma gondii growth with IFN-gamma; Toxoplasma gondii growth in IFN-gamma-treated host cells; stronger effect = lower value; reference of the scale not given here; activity change, negative = inhibition, %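 (about 20 µM by stock and volumes)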; 69,000 compounds, 3.8% hits;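 active means below -70%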;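 further: host cells are HeLa cells infected with Toxoplasma gondii; parasite growth read as luciferase light; one replicate is shown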
* hit, by the source's call.

A first look (three entries):
SMILES	Tgondii IFNg
O=C1NCCN2CCN(Cc3cccn3S(=O)(=O)c3ccccc3)CC12 (stereo unspecified)	23.0
COc1ccc(-c2cn(Cc3nc(C)c4c(n3)CCCC4)nn2)cc1OC	-3.8
Cc1cc(C(=O)Nc2cccc(Cl)c2N2CCOCC2)nc(N2CCOCC2)n1	-19.6

Main list (from the top)
SMILES	Tgondii IFNg
O=C1NCCN2CCN(Cc3cccn3S(=O)(=O)c3ccccc3)CC12 (stereo unspecified)	23.0
COc1ccc(-c2cn(Cc3nc(C)c4c(n3)CCCC4)nn2)cc1OC	-3.8
Cc1cc(C(=O)Nc2cccc(Cl)c2N2CCOCC2)nc(N2CCOCC2)n1	-19.6
COc1ccc(-c2nc(Cn3ccn4nc(-c5ccc(F)cc5)cc4c3=O)c(C)o2)cc1	53.1
Cn1c(=O)cc(N2CCCCC2)c2c(=O)n(-c3ccccc3)c(=O)n(-c3ccccc3)c21	-5.5
CCCCOCC1CC(CC#CCN2CCCCC2)C(=O)O1 (stereo unspecified)	2.2
CN1C(=O)CCCC12CCCN(C(=O)c1cccc3cccnc13)C2 (stereo unspecified)	4.7
CC(=O)N[C@@H](C)C(=O)N(C)Cc1ccccc1OCC(C)C	-1.3
O=C(C[C@@H]1CC[C@H]2[C@@H](COC[C@H](O)CN2CCC(F)(F)F)O1)NCC1CC1	-9.7
Cc1ccc(NC(=O)CS(=O)CC(=O)NCC2OCCc3ccccc32)cc1Cl (stereo unspecified)	-66.5
COc1ccc(C2NC(=S)NC3=C2CCc2ccccc23)cc1 (stereo unspecified)	89.1
COc1ccc(-c2nc(Nc3cc(Cl)c(OC)cc3OC)c3ccccc3n2)cc1	17.6
CC(=O)N1N=C(c2ccc3ccccc3c2)OC1c1cccc(Cl)c1 (stereo unspecified)	-51.3
C=CCn1c(=O)c(-c2nc(-c3cccc(OCC)c3)no2)c(O)c2ccccc21	-46.8
Cc1nc2c(c(=O)[nH]1)CCN(C(=O)Cc1nn(C(C)C)c(=O)c3ccccc13)C2	-6.6
COc1ccc(-c2c(NC(=O)c3ccco3)n(C)c3ccccc3c2=O)cc1	14.2
O=C(CN1C(=O)CCc2cc(S(=O)(=O)N3CCOCC3)ccc21)NC1CCCc2ccccc21 (stereo unspecified)	3.2
O=C1CO[C@H]2CN(c3cc(C(F)(F)F)ncn3)C[C@@H]2N1	-2.9
Cc1cccc(C)c1NC(=O)NCc1ccccc1	33.6
COc1cc2c(cc1OC)C(Cc1ccc(O)cc1)N(C)CC2 (stereo unspecified)	6.0
Cc1noc2c1C1=NCCN1C(=O)N2CC(=O)N1CCOCC1	-8.9
Cc1cnc(N(C)CC2CCCO2)nc1N(C)C (stereo unspecified)	-3.0
CCOc1ccc(-c2nc3c(s2)CN(S(=O)(=O)c2cc(C)cc(C)c2)CC3)cc1	-95.1*
Cc1ccc(S(=O)(=O)N2CCC3(CC2)NCCN=C3NCc2ccc(F)cc2)cc1C	14.7

Among those listed so far, these have a Cl atom.
SMILES	Tgondii IFNg
Cc1cc(C(=O)Nc2cccc(Cl)c2N2CCOCC2)nc(N2CCOCC2)n1	-19.6
Cc1ccc(NC(=O)CS(=O)CC(=O)NCC2OCCc3ccccc32)cc1Cl (stereo unspecified)	-66.5
COc1ccc(-c2nc(Nc3cc(Cl)c(OC)cc3OC)c3ccccc3n2)cc1	17.6
CC(=O)N1N=C(c2ccc3ccccc3c2)OC1c1cccc(Cl)c1 (stereo unspecified)	-51.3

Further entries follow:
SMILES	Tgondii IFNg
CCN(CC)C(CNc1nc(C)nc2c1cnn2C)c1ccco1 (stereo unspecified)	-4.6
CN(CC1CCCO1)C(=O)c1coc(COc2ccc(F)cc2Cl)n1 (stereo unspecified)	-32.1
Cc1ccc(NC(=O)C(CC(C)C)NC(=O)OCc2ccccc2)cc1C (stereo unspecified)	-10.7
Cc1cccc(CN2CCN(Cc3cn[nH]c3-c3ccccc3)CC2)c1	-7.1
COC(=O)[C@@]12OC[C@]34[C@H]([C@@H](O)[C@@H]1O)[C@@]1(C)CC(=O)C(=O)C(C)[C@@H]1C[C@H]3OC(=O)[C@H](OC(=O)/C=C(\C)C(C)C)[C@@H]24 (stereo partly specified)	-88.8*
COc1ccc(CCNC(=O)C2=C(C)C(=O)OC23CCN(C(C)=O)CC3)cc1OC	36.2
O=C(C[C@H]1CC[C@H](NC(=O)c2cccnc2)[C@@H](CO)O1)NCc1ccc(Cl)c(Cl)c1	16.6
Cc1cccc(NC(=O)c2nnn(Cc3nc(-c4ccc(OC(C)C)cc4)oc3C)c2C)c1C	-89.1*
COc1cccc(S(=O)(=O)Nc2ccc3c(c2)CCC(=O)N3CC(C)C)c1	-52.1
Cc1ccc(C)c(NS(=O)(=O)c2cc3c4c(c2)CCN4C(=O)CC3)c1	2.3
Cc1onc(-c2ccccc2)c1CNS(=O)(=O)c1ccc(-c2ccccn2)s1	42.7
C[C@H]1CN([C@@H](C)CO)C(=O)c2cccc(N(C)C)c2O[C@H]1CN(C)C(=O)Nc1ccc(F)cc1	-5.2
Cc1ccc(-c2cc(O)c3c(c2)CN(C(=O)c2cccc(F)c2)CCO3)s1	-70.1*
CCOCC1CN(S(=O)(=O)c2ccc(C)cc2)Cc2ccnn2C1 (stereo unspecified)	3.3
Cc1noc(C[C@H]2C[C@@H]3CN(C(=O)c4ccco4)C[C@H]3O2)n1	-25.0
COc1ccc2c3c([nH]c2c1)[C@H](CO)N(Cc1cccnc1)CC31CCN(C(=O)CN(C)C)CC1	214.3
C[C@@H]1CN([C@@H](C)CO)C(=O)c2ccccc2-c2ccccc2CO[C@@H]1CN(C)C(=O)c1cc(Cl)cc(Cl)c1	-51.1
O=S(=O)(c1cccs1)N1CCC2(CC1)NCCN=C2NCc1cc(F)cc(F)c1	9.3
O=C(CCC1N=C2c3ccccc3N=C(SCc3ccccc3Cl)N2C1=O)NCc1cccs1 (stereo unspecified)	11.4
Cc1cccc(-c2nc(C)c(CCNC(=O)C(=O)Nc3ccccc3C)s2)c1	-27.2
CN1CC2(CCN(C(=O)c3ccc(CC4CCCNC4)cc3)CC2)OC1=O (stereo unspecified)	-0.5
COCC(=O)N1C[C@@H]2[C@H](c3ccccc31)[C@H](CO)N2C(=O)c1ccccc1F	-50.2
CC(=O)N1C[C@H]2C(=O)NC3(CCN(S(=O)(=O)c4ccc(C)cc4)CC3)[C@H]2C1	36.0
Cc1ccc(O)c(C(=O)N2CC[C@H](O)[C@@H](O)C2)c1	6.0
O=C(C[C@@H]1CC[C@@H]2[C@H](COC[C@H](O)CN2C(=O)Nc2ccc(F)cc2)O1)NC1CCC1	16.6
O=C(CSc1nnc(-c2cnccn2)s1)Nc1ccccc1	158.2
COc1cc(OC)c(OC)cc1/C=C/C1=CCN(C)CC1	-11.9
CN(Cc1ccncn1)C(=O)c1nn(C)c(=O)c2ccccc12	2.1
O=C(c1cc2cccnc2n(Cc2ccccc2F)c1=O)N(Cc1ccccc1)Cc1ccccc1	8.2
COc1ccc(/C=C/C(=O)N2CCC3(CC2)CC3C(=O)N2CCN(c3ccccn3)CC2)cc1OC (stereo unspecified)	0.0
CCc1onc(C)c1C1CCCN1Cc1cn(C)c2ccc(OC)cc12 (stereo unspecified)	-19.9
COCCNC(=O)C1CCCN(C2CCN(C(=O)c3cscn3)CC2)C1 (stereo unspecified)	0.8
O=C(Nc1n[nH]c(Cc2ccccc2)n1)N1CCc2ccccc2C1	-39.0
OC1(C(F)(F)F)CC(c2nccs2)=NN1 (stereo unspecified)	-13.1
COC(CNC(=O)c1c(C)cc(C)n(C)c1=O)c1cccs1 (stereo unspecified)	5.2
COc1ccc(-n2c(=O)c(C(=O)Nc3ccc(C)c(C)c3)c(O)c3cccnc32)cc1	71.1
Cc1ccc(-c2nc(Cn3nnc(C(=O)Nc4cc(C)cc(C)c4)c3C)c(C)o2)cc1	-48.8
COc1cc2c(cc1OC)C(Nc1nc(-c3ccccc3)cs1)=NC(C)(C)C2	-66.6
COc1cccc(-c2ccc3c(c2)[C@@H]2[C@@H](CCN2C(=O)c2ccccc2F)[C@H](CO)N3C)c1	-63.3
Ic1cc(-c2ccccc2)ncn1	13.9
Cc1cc(CC(C)NC(=O)c2cccc(CC3CCNCC3)c2)n[nH]1 (stereo unspecified)	-3.0
O=C(CCC1Nc2c3ccccc3nc(=S)n2C1=O)N1CCN(c2ccccc2F)CC1 (stereo unspecified)	7.0
CCOC(=O)C1=C(C)N[C@@]2(O)c3ccccc3C(=O)[C@@]12O	2.4
COC1CC2COCC(C1)N2Cc1cccc(F)c1 (stereo unspecified)	-5.7
Cc1ccc(-c2nc(Cn3nnc(C(=O)NCc4ccc(Br)cc4)c3C)c(C)o2)cc1	-68.1
CC(C)CC#Cc1ccc([C@@H]2[C@H](CO)N3CCCCN(C(=O)Nc4ccccc4)C[C@@H]23)cc1	-41.5
COCC(=O)N1[C@@H]2c3ccc(-c4ccncc4)c(=O)n3C[C@@H]2[C@@H](CO)[C@@H]1C(=O)Nc1ccccc1	-4.7
CCC1c2cccn2CCN1Cc1cn[nH]c1-c1cccc(OC)c1 (stereo unspecified)	52.5
Cn1ncc(Cl)c1C1CCCCCN1 (stereo unspecified)	-49.1
Cc1cccc(C)c1Oc1ncccc1CNC(=O)c1ccnn1C(F)F	17.4
Cn1ccnc1CN1CCOCC2(CC(CNc3cccc(F)c3)CO2)C1 (stereo unspecified)	1.8
Cc1cc(C)n(-c2cccc(C(=O)N(CCO)Cc3ccco3)c2)n1	4.9
COC(=O)c1ccccc1SC(CC(=O)c1cccnc1)c1ccc(F)cc1 (stereo unspecified)	-8.2
COc1cccc(-n2c(=O)c(C(=O)Nc3ccc(C)cc3F)c(O)c3cccnc32)c1	12.6
CC(C)c1nccc([C@@H]2C[C@H]3CCN(Cc4cnn(C)c4)C[C@@H]3O2)n1	3.1
CCc1ccc2c(c1)cc(S(=O)(=O)c1ccccc1)c(=O)n2CC(=O)NCCC1=CCCCC1	-6.4
O=c1[nH]c(NC2CCN(Cc3nnnn3Cc3ccccc3)CC2)nc2c1CCCC2	-15.7
COC1C2CCC1N(C(=O)c1nn(C)c3ccccc13)CCO2 (stereo unspecified)	22.5
COc1ccccc1NC(=O)N1[C@H](C#N)[C@H](c2ccccc2)[C@H]1CO	3.5
CC(C)NC(=O)N(C)C[C@H]1Oc2ccc(NC(=O)c3ccncc3)cc2C(=O)N([C@H](C)CO)C[C@H]1C	1.2

Brought forward from above: 6 compounds, followed by the next part.
SMILES	Tgondii IFNg
CC(C)c1nccc([C@@H]2C[C@H]3CCN(Cc4cnn(C)c4)C[C@@H]3O2)n1	3.1
CCc1ccc2c(c1)cc(S(=O)(=O)c1ccccc1)c(=O)n2CC(=O)NCCC1=CCCCC1	-6.4
O=c1[nH]c(NC2CCN(Cc3nnnn3Cc3ccccc3)CC2)nc2c1CCCC2	-15.7
COC1C2CCC1N(C(=O)c1nn(C)c3ccccc13)CCO2 (stereo unspecified)	22.5
COc1ccccc1NC(=O)N1[C@H](C#N)[C@H](c2ccccc2)[C@H]1CO	3.5
CC(C)NC(=O)N(C)C[C@H]1Oc2ccc(NC(=O)c3ccncc3)cc2C(=O)N([C@H](C)CO)C[C@H]1C	1.2
CN(C)CCn1cnc2nnc3ccc(C(=O)C4CC4)cc3c21	0.6
C[C@@H]1CN([C@@H](C)CO)C(=O)Cc2cc(NC(=O)C3CC3)ccc2O[C@@H]1CN(C)S(=O)(=O)c1cn(C)cn1	1.5
N#C[C@H]1[C@H](c2ccccc2C2=CCCCC2)[C@H](CO)N1C(=O)c1ccccn1	5.4
Cc1cc(N2CC(c3cccnc3)C2)c2cc3c(cc2n1)OCO3	-10.9
Cc1cccc(-c2ccc([C@H]3[C@@H](CO)N4CCCCN(S(=O)(=O)c5ccccc5F)C[C@@H]34)cc2)c1	-16.8
CC(=O)N1CCC(c2nnc3ccc(C(=O)N4CCCC4)cn23)C1 (stereo unspecified)	-3.5
O=C(O)CCCNC1C=CS(=O)(=O)C1 (stereo unspecified)	6.7
COc1cc(CNC(=O)C2(C)CCN(C(=O)c3cccs3)CC2)cc(OC)c1	13.9
Cc1nn(C)c(C)c1NC(=O)c1cccc(CN2CCc3ccccc3C2)c1	4.4
O=C1OCCN1c1ccccc1-n1cnnc1	6.1
COc1ccc(-c2noc(Cc3ccc(OC)c(OC)c3)n2)cc1	60.0
CC(C)N1CCCn2c(nc(CNC(=O)c3cnn(C)c3)cc2=O)C1	4.8
NC(=O)c1cnc2n1CCN(C(=O)c1ccc(-n3ccnc3)cc1)C2	-1.1
O=C(NC1CCCCC1)NC1CCCCC1	-48.0
CC(=O)NC[C@@H]1[C@@H](c2ccc(C#Cc3ccccc3F)cc2)[C@@H](CO)N1C(C)=O	-9.2
O=C(NC1CC1)c1cc2n(n1)CCN(C(=O)CC1NC(=O)c3ccccc31)C2 (stereo unspecified)	0.8
Cn1nc(C2CCN(C(=O)C3COC(=O)N3)CC2)n(-c2ccccc2)c1=O (stereo unspecified)	128.4
COc1cccc(-c2[nH]ncc2C(=O)N2C[C@@H]3[C@@H]4CC[C@@H](C4)[C@@H]3C2)c1	3.2
CC(=O)Nc1cccc2nc(CN3CCCC(C(=O)c4cccc5ccccc45)C3)ccc12 (stereo unspecified)	21.3
COCC(=O)N1CCC2(CC1)CN(C(=O)c1ccccn1)[C@H](CO)c1c2c2ccc(OC)cc2n1C	-7.9
Cc1ccc(C(=O)N(Cc2ccccn2)CC2CCCO2)cc1N1CCOCC1 (stereo unspecified)	18.9
COc1ccc(CNc2nc(SCc3cc(=O)n4cc(Cl)ccc4n3)nc3ccccc23)cc1	9.2
O=C(CN1C(=O)CCc2cc(S(=O)(=O)N3CCCCC3)ccc21)Nc1cccc(Cl)c1	-88.4*
CCN1c2cc(C)ccc2-n2cccc2C12CCN(C(=O)Nc1ccccc1)CC2	-12.9
CCCCn1nnnc1NC(=O)N1CCC(CC)(CC)C1	-15.5
Oc1cccc2[nH]ccc12	-33.9
CCCS(=O)(=O)c1c(S(=O)(=O)CCC)c2ccccn2c1C(=O)c1ccccc1	-35.8
O=C(c1ccncc1)N1CCC2(C1)c1ccccc1S(=O)(=O)N2Cc1ccccc1 (stereo unspecified)	1.0
Cc1nc(CCn2ccnc2-c2nc[nH]c2C)nc2c1CCC2	-0.3
CCc1ccc(-c2nccn2CCCn2ccnc2)cc1	-5.1
COc1cccc(CN2CCCC(C(NC(=O)C(C)(C)C)c3ccccn3)C2)c1 (stereo unspecified)	-3.8

Screens: PubChem BioAssay, Broad Institute

These rows are one share of the data (hit frequency here may not be typical).
